miR-21 FLuc = qHTS Assay for Modulators of miRNAs and/orActivators of miR-21; Potency, µM (top dose mostly 38.3 µM), without a hit: top-dose reporter change, positive = more light; HeLa miR-21 FLuc reporter, luciferase, 48 h; 340,000 tested, under 10 active; active = well fitted rising curve with a large enough effect; inconclusive = small, poorly fitted or top-dose-only effect; inactive = no such curve, though single readings can be large or run the other way;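 note: % of control where 0% means no effect; miR-21 action dims this reporter so a rising signal means less miR-21 action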
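Compounds were titrated across several concentrations (up to approximately 40 uM) and incubated 48 hours with HeLa miR-21-FLuc reporter cells (miR-21 target sequence downstream of FLuc, endogenous miR-21). Readout was firefly luciferase luminescence after lytic detection reagent.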
GLA inh pH 4.5 = qHTS Assay for Inhibitors of Human alpha-Galactosidase at pH 4.5; activity change, negative = inhibition, % at 105 µM; Alpha-galactosidase A (Homo sapiens), P06280; purified enzyme, 4-MU-alpha-Gal fluorescence, pH 4.5; 230,000 tested, under 10 active; inconclusive = small, poorly fitted or top-dose-only inhibition, or a rising curve; inactive = flat fitted curve, though single readings scatter; no compound was filed as active;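 note: 0% = full activity with enzyme and -100% = basal without enzyme; dose as in the result columns while the protocol names 77 µM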
Target sequence (P06280 whole entry, looked up): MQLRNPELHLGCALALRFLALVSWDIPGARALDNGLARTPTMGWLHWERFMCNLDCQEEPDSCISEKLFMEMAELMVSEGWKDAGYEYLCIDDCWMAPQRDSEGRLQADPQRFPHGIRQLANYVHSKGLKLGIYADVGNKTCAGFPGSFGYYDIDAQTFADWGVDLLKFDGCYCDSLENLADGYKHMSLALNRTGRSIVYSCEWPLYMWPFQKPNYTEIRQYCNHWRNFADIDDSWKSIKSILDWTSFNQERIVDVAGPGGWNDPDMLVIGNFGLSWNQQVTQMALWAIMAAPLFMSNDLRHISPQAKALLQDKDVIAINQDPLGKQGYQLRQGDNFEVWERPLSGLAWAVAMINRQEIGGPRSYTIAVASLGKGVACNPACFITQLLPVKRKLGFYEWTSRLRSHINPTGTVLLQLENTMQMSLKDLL
Rango dissoc inh = qHTS Assay for Inhibitors of RanGTP induced Rango (Ran-regulated importin-beta cargo) - Importin beta complex dissociation. Snurportin-1 (Homo sapiens) + GTP-binding nuclear protein Ran (Homo sapiens) + Importin …. Potency, µM (highest dose often 46.1 µM), for inactives: top-dose activity change, negative = inhibition. AID 540253, 2011. Biochemical FRET Rango-importin beta, RanGTP-induced dissociation. actives 0.071% (n = 340,000); active means falling FRET ratio curve, often poorly fitted, with flat reads before Ran was added; inconclusive means other falling curves, or compound fluorescence or quenching; inactive means flat or rising ratio curve;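 note: potency is the fitted concentration of half-maximal effect; % of control where 0% means no effect; nearly all actives have a fitted effect of over 45% in size; -100% = wells without RanGTP and RCC1; the record marks most hits as doubtful in a second field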
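Rango/importin beta premix (0.1/0.25 uM final), PBS + 1 mM DTT + 0.02% Tween-20 + 0.1% BSA; cpd 5 min RT; FRET pre-read; + RanGTP-RCC1 (0.6 uM Ran, 2 mM GTP, 0.2 uM RCC1); 45 min RT; FRET post-read, ex 430, em 486/530 nm.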
Rango complex inh = qHTS Assay for Inhibitors of Rango (Ran-regulated importin-beta cargo) - Importin beta complex formation; Importin subunit beta-1 (Homo sapiens), Q14974; Rango CFP/YFP FRET sensor + importin beta, 45 min; Potency, µM (highest dose often 92.2 µM), inactives show at the highest dose inhibition of complex formation; actives 0.031% (n = 340,000); AID 540263, 2011; active = rising FRET ratio curve, often small or poorly fitted; inconclusive = mostly compound fluorescence or quenching in the first reads; inactive = flat curves in all reads;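 note: potency is the fitted concentration of half-maximal effect; 0% = DMSO wells and 100% = buffer wells lacking importin beta; nearly all actives have a fitted effect of over 15% in size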
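FRET biosensor (snurportin 1 IBB flanked by EYFP and cerulean), 50 nM, with compound 5 min, then 0.125 microM importin beta in PBS, 1 mM DTT, 0.02% Tween-20, 0.1% BSA. CFP/YFP ratio read after 45 min at room temperature; pre-read flags interference.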
Active calls of the source: *; u = inconclusive; x = not tested or not shown; & = joins results of further samples. Not all compounds are listed; count on the stated rates, not on these rows.

SMILES	miR-21 FLuc	GLA inh pH 4.5	Rango dissoc inh	Rango complex inh
COCCCNC(=O)C1CCCN(S(C)(=O)=O)C1 (configuration not stated)	3%	8	-12%	-1.2%
CCOC(=O)C1(Cc2ccc(OC)cc2)CCN(C(=O)c2csc(C)n2)CC1	-12%	3	10%	1.3%
CCOc1ccc(OCC)c(NC(=O)C2CCCN(S(=O)(=O)c3c(C)noc3C)C2)c1 (configuration not stated)	-3%	5	2%	0.0%
O=[N+]([O-])c1ccc(N/N=C2/CCCCC2c2ccccn2)c([N+](=O)[O-])c1 (configuration not stated)	2%	-6	11%	-1.1%
CCN(c1ccccc1)S(=O)(=O)c1cccc(C(=O)NCc2ccccn2)c1	x	x	2%	-1.9%
Cc1c(C(=O)NC(C)c2ccccc2)c(-c2ccccc2)nn1-c1ccccc1 (configuration not stated)	0%	0	7%	-4.2%
CCOc1ccccc1C(=O)NCC(=O)NC(C)c1ccc(-n2ccnc2)cc1 (configuration not stated)	x	x	1%	0.3%
Cc1ccc(C)c(NC(=O)CN(C)C(=O)C2=NNC(=O)CC2)c1	x	x	-9%	0.4%
CCN(CC(=O)Nc1ccccc1OC)C(=O)c1cc(S(=O)(=O)N2CCCCCC2)ccc1OC	x	x	1%	-2.2%
CCOC(=O)c1sc(N/N=C/c2ccc(N(C)C)cc2)nc1C	-3%	x	u	u
CCN(CC(=O)Nc1ccc(Cl)c(S(=O)(=O)N(C)C)c1)CC(=O)NC(C)C	-3%	-7	2%	-3.7%
COCCNC(=O)CSc1ncnc2sccc12	-2%	4	1%	-2.1%
CCc1cc(SC#N)cc(C)c1N	5%	-2	19%	6.1%
O=C(O)c1cccc(S(=O)(=O)N2CC=C(c3ccccc3)CC2)c1	x	x	6%	-2.7%
C=CCNC(=S)N/N=C/c1cn(C)c2ccccc12	-2%	-1	20%	0.9%

An excerpt of these results, as comma-separated lines:
Compound,miR-21 FLuc,GLA inh pH 4.5,Rango dissoc inh,Rango complex inh
CCOc1ccccc1C(=O)NCC(=O)NC(C)c1ccc(-n2ccnc2)cc1 (configuration not stated),x,x,1%,0.3%
Cc1c(C(=O)NC(C)c2ccccc2)c(-c2ccccc2)nn1-c1ccccc1 (configuration not stated),0%,0,7%,-4.2%
COCCCNC(=O)C1CCCN(S(C)(=O)=O)C1 (configuration not stated),3%,8,-12%,-1.2%

Complete entries from above. Order of values: miR-21 FLuc, GLA inh pH 4.5, Rango dissoc inh, Rango complex inh
Shown for `CCN(CC(=O)Nc1ccccc1OC)C(=O)c1cc(S(=O)(=O)N2CCCCCC2)ccc1OC` → x, x, 1%, -2.2%
Shown for `Cc1c(C(=O)NC(C)c2ccccc2)c(-c2ccccc2)nn1-c1ccccc1` (configuration not stated) → 0%, 0, 7%, -4.2%
Shown for `C=CCNC(=S)N/N=C/c1cn(C)c2ccccc12` → -2%, -1, 20%, 0.9%
Shown for `CCN(c1ccccc1)S(=O)(=O)c1cccc(C(=O)NCc2ccccn2)c1` → x, x, 2%, -1.9%
Shown for `COCCNC(=O)CSc1ncnc2sccc12` → -2%, 4, 1%, -2.1%

Further records
SMILES	miR-21 FLuc	GLA inh pH 4.5	Rango dissoc inh	Rango complex inh
Cc1ccc(OC(=O)CCC(=O)Oc2ccc(C)cc2C)c(C)c1	x	x	-5%	-1.2%
N=c1c(S(=O)(=O)c2ccccc2)cc2c(=O)n3ccccc3nc2n1Cc1ccco1	-3%	4	u	u
COc1ccc(C(=O)N/N=C/c2cc3ccccc3[nH]c2=O)cc1	-1%	0	-25%	u
Cc1cc(NC(=O)CC2Oc3ccccc3NC2=O)ccc1Br (configuration not stated)	-3%	x	-3%	0.8%
CC(C)c1nnc(SCC(=O)NCc2ccco2)n1C	-6%	-25	-3%	-4.0%
C=CCn1c(CSCc2ccccc2)nnc1SCC(=O)NCc1ccccc1	1%	-3	-1%	0.2%
COc1ccccc1N1CCN(c2cc(=O)n(Cc3ccc(F)cc3)c(=O)[nH]2)CC1	2%	-6	-9%	-3.5%
Cc1ccc(CNC(=O)C(CCC(N)=O)NC(=O)OCc2ccccc2)cc1 (configuration not stated)	-7%	4	7%	-3.8%
O=C1[C@@H](Oc2ccccc2)[C@@H](c2ccccc2)N1c1cccnc1	x	x	0%	-0.2%
CCCCN(C(=O)CNC(=O)c1cccs1)C(C(=O)NC1CCCCC1)c1cccnc1 (configuration not stated)	0%	-3	0%	2.3%
O=C(C(c1ccccc1)c1ccccc1)N1CCN(Cc2ccccn2)CC1	-2%	7	17%	1.5%
CC(=O)NC12CC3CC(C1)CC(C(=O)OCC(=O)c1ccc4c(c1)OCCO4)(C3)C2	-46%	-5	-18%	1.7%
Oc1ccc(C=NN=C2c3ccccc3-c3ccccc32)c(O)c1	x	x	1%	6.8%
Cc1occc1C(=O)Nc1cccc(/C=C/C(=O)O)c1	x	x	3%	0.5%
CCOC(=O)C1C(CC)NC(=S)NC1(C)O (configuration not stated)	-1%	-1	9%	0.1%
CN(C)CCC(=O)C(Cc1ccccc1)c1ccccc1 (configuration not stated)	x	x	-9%	3.9%
C/C(CC(=O)NCc1ccco1)=N\NC(=O)COc1ccc(C)cc1	-9%	1	-11%	-2.8%
CCc1ccccc1NC(=O)CN1CCN(C(=O)CN2C(=O)NC3(CCCC3)C2=O)CC1	x	x	14%	0.3%
Cc1cccnc1NC(=O)Cn1nc(-c2ccccc2)oc1=S	-1%	-2	-7%	4.2%
CCCCn1c(N)c(N(CCOC)C(=O)c2ccc(N3C(=O)c4ccccc4C3=O)cc2)c(=O)[nH]c1=O	x	x	0%	0.5%
COc1ccc(/C=C/c2nc(C#N)c(NCCN(C)C)o2)cc1OC	1%	x	-11%	-0.6%
O=C(Nc1ccccc1[N+](=O)[O-])C1C(c2ccccc2)=C1c1ccccc1	-3%	0	-3%	2.4%
Cc1[nH]n(-c2ccccc2)c(=O)c1/C=N/N1C(=O)c2cccc3cccc(c23)C1=O	5%	4	-2%	5.0%
O=C(NCCOC(=O)c1ccc(S(=O)(=O)N2CCOCC2)cc1)c1cccnc1	-6%	9	0%	-2.8%
CCCN(CC(=O)Nc1ccccc1C)C(=O)c1cc(C)oc1C	x	x	-2%	2.5%
NC(CC(=O)NC(c1ccccc1)(c1ccccc1)c1ccccc1)C(=O)O (configuration not stated)	0%	-1	-27%	0.8%
Cc1cc(-c2nn(-c3ccccc3)cc2/C=C2\SC(N)=NC2=O)ccc1OC(C)C	-1%	-1	4%	-0.8%
CCCCN(C)S(=O)(=O)c1ccc(C(=O)N=c2sc3cc(NC(C)=O)ccc3n2C)cc1	-1%	7	-7%	3.6%
CCOc1ccc(C(CC(=O)O)NC(=O)COc2ccccc2OC)cc1OC (configuration not stated)	-10%	-10	8%	9.4%
CCOc1ccc(NC(=O)C2CCCN(S(=O)(=O)c3ccc4[nH]c(=O)ccc4c3)C2)cc1 (configuration not stated)	0%&-11%	x	-1%	-0.2%
CNC(=O)c1sc(-c2cccnc2)nc1C	-2%	-22	5%	1.2%
CCOC(=O)C1CCCN(c2nc3ccccc3nc2NS(=O)(=O)c2ccc(C)cc2)C1 (configuration not stated)	x	x	-16%	-3.3%
CCOC(=O)Cc1csc(NC(=O)CCS(=O)(=O)Cc2ccccc2)n1	-1%	-11	-7%	-1.0%
CC(C)C[C@@H](CN1CCC[C@@H]1CN1C(=O)C(=O)NC[C@@H]1Cc1ccccc1)N1C[C@H](Cc2ccc(O)cc2)N(CCc2ccccc2)C(=O)C1=O	x	x	-1%	-1.3%
NC(=S)N/N=C/c1c(O)c(Br)cc2oc3c(c12)CCCC3	0%	-7	18%	3.2%
CCCN(CC(=O)Nc1ccccc1C)C(=O)c1cnc(C)cn1	x	x	0%	1.6%
O=C(Nc1nc(-c2ccccc2)cs1)Nc1ccc(F)cc1F	-1%	2	1%	1.1%
COc1ccc(C2NC(=O)NC(O)(C(F)(F)F)C2C(=O)c2ccc(C)cc2)cc1 (configuration not stated)	-2%	2	5%	-2.4%
CCN(CC)P(=O)(Nc1ccc([N+](=O)[O-])cc1)c1c(C)nn(CCC#N)c1NC(=O)c1ccc(Cl)cc1Cl (configuration not stated)	21%	-10	-19%	-2.4%
COc1ccccc1-c1nnc(SCC(=O)Nc2ccc(S(N)(=O)=O)cc2)n1C	0%	0	17%	3.3%
Cc1ccc(NC(=O)N/C=C/c2ccco2)c(C)c1	-14%	-1	-29%	u
CCn1c(CNC(=O)c2ccco2)nnc1SCCOc1ccccc1	-1%	x	5%	1.3%
CCN(c1ccccc1)S(=O)(=O)c1ccc(N2CCN(c3ccc(OC)cc3)CC2)nc1	x	x	3%	0.0%
O=C(Nc1ccc(Br)cc1)c1ccc(N2C(=O)C3CCCCC3C2=O)cc1 (configuration not stated)	-1%	x	-8%	-1.9%
COc1ccc2oc(C(=O)NC(C)c3ccccn3)c(C)c2c1 (configuration not stated)	x	x	22%	-1.0%
O=C(NCC1OCCCN1S(=O)(=O)c1cc(F)ccc1F)C(=O)NC1CCCCCC1 (configuration not stated)	-12%	4	-14%	2.3%
COC(=O)CNC(c1ccccc1)c1cc(Br)ccc1NC(=O)CNC(=O)OCc1ccccc1 (configuration not stated)	26%	-7	13%	3.5%
COc1cccc(-n2c(COc3ccc(C)cc3)nnc2SCC(N)=O)c1	0%	-1	-5%	5.2%
CCC(CC)c1nnc(NC(=O)c2c(-c3ccccc3)noc2C)s1	-2%	3	u	0.1%
COc1ccc(CN(C(=O)c2ccco2)c2ccc(C)c(C)c2)cc1	16%	-6	0%	u
O=S(=O)(NCC1CCC(NS(=O)(=O)c2c(F)cccc2F)CC1)c1ccc2c(c1)OCCO2 (configuration not stated)	x	x	13%	1.8%
CC1(C)CC(NCCN2CCN(C3=CC(=C(C#N)C#N)CC(C)(C)C3)CC2)=CC(=C(C#N)C#N)C1	1%	-21	2%	0.0%
CC(=O)c1ccc(N2CCN(S(=O)(=O)c3cccc4nsnc34)CC2)cc1	3%	-4	-5%	1.3%
O=C(COC(=O)CCC(=O)c1ccc(F)cc1)Nc1ccc(N2CCOCC2)cc1	-6%	6	-5%	-1.1%
NC(=O)Cn1c(O)c(N=NC(=O)CNC(=O)/C=C/c2ccccc2)c2ccccc21	-1%	x	-1%	-0.6%
O=C(CN1CCCC1)N1c2ccccc2Sc2ccc(Cl)cc21	-1%	x	-13%	4.1%
Cn1nccc1NC(=O)CC1(CC(=O)O)CCCCC1	-5%	-19	-10%	-3.9%
CN(C(=O)COC(=O)c1cc(-c2ccccc2Cl)nc2ccccc12)C1CCS(=O)(=O)C1 (configuration not stated)	-1%	-1	6%	4.6%
CN1C(=O)CS(=O)c2ccc(C(=O)NC3CC3)cc21 (configuration not stated)	-4%	-4	-7%	-1.6%
Cc1cccc(Cn2c(=O)n(-c3ccc(CC(=O)NCc4ccco4)cc3)c(=O)c3sccc32)c1	24%	4	21%	-5.2%
Continuation:
SMILES	miR-21 FLuc	GLA inh pH 4.5	Rango dissoc inh	Rango complex inh
Cc1cc(NS(=O)(=O)c2ccc(NC(=O)Nc3cccc(C(F)(F)F)c3)cc2)no1	-3%	x	10%	-1.1%
CN(C)c1nc(N2CCN(c3ccccc3)CC2)c(C#N)c(=O)o1	-17%	1	1%	-3.7%
FC(F)Oc1ccc(NC(=S)NC23CC4CC(CC(C4)C2)C3)cc1	25%	x	19%	3.7%
Cc1ccc(S(=O)(=O)Nc2ccccc2-c2ccccc2NS(=O)(=O)c2ccc(C)cc2)cc1	22%	-14	-15%	-2.7%
COC(OC)C1(CCc2ccccc2)NC(=O)NC1=O (configuration not stated)	x	x	-1%	-0.6%
O=C(c1ccccc1C(=O)N(c1ccccc1)c1ccccc1)N1CCCCC1	-2%	-4	0%	0.2%
CCn1cc(CN2CCN(CCc3ccccc3)C(CCO)C2)c(C)n1 (configuration not stated)	-1%	1	-1%	-1.4%
